# Beta2AR agonist: agonists of human beta-2 adrenergic receptor inducing internalization; Am2.2-beta2AR cells, FAP receptor internalization, flow cytometry; reference of the scale not given here; response, % (concentration not given with the values); 340,000 tested, 0.43% active; AID 504454;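 active = response above a set limit, near 3 SD of response in nonfluorescent compounds, cut at about 42% in these data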;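 also: stock transfer was 100 nL into about 11 µL; a reference agonist was the positive control; negative values mostly stem from fluorescent compounds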
# Target sequence (P07550 whole entry, looked up): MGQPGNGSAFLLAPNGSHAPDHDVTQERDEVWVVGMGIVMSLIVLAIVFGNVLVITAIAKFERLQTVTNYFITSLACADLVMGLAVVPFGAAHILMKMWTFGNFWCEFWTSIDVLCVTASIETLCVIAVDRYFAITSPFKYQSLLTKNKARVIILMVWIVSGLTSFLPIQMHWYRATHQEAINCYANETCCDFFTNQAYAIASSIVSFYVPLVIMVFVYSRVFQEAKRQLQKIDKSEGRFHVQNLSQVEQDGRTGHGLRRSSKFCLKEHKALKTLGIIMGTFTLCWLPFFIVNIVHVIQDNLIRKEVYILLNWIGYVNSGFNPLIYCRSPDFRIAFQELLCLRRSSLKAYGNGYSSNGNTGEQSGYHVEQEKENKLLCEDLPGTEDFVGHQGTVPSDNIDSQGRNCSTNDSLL
# ALR inh: blocks human ALR sulfhydryl oxidase activity. P55789. purified ALR, DTT oxidation, H2O2 HRP-luminol luminescence. inhibition, % (no concentration beside the values). 290,000 tested, 3.8% active. AID 485317;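 active = mean and each replicate at 75% or more; inconclusive = only one of the two met; inactive = neither met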;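 also: stock transfer was 7.5 nL into about 7.5 µL; 0% = neutral wells and 100% = wells with inactivated enzyme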
# Target sequence (P55789 whole entry, looked up): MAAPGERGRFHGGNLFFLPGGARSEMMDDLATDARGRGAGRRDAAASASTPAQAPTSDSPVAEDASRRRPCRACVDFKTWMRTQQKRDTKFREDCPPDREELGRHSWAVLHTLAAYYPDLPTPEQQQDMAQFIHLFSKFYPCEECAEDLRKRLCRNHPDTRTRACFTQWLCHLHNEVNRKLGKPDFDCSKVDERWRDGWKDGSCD
# Vif TR-FRET: inhibitors of Vif binding to APOBEC3G peptide, primary screen, biochemical, TR-FRET, GST-Vif 1-94, biotin-A3G peptide, dose response retest (AID 1117319) | TR-FRET GST-Vif / biotin-A3G peptide binding; higher % means a stronger effect; test concentration not given here; strong numbers were not always called active | inhibition, %; hits with a dose series show IC50 in µM | 260,000 tested, 0.57% active;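 active = above the screen mean plus three standard deviations and confirmed in dose response; inconclusive = results disagree or hit not tested in dose response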;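 also: Vif residues 1-94 fused to GST binding biotinylated APOBEC3G peptide 110-148; 0% = full assay without inhibitor and 100% = GST in place of GST-Vif; retest series ran down from 100 µM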
# RanGTP-Imp inh: inhibitors of RanGTP-importin-beta interaction, primary screen, biochemical, FRET, CFP-Ran, YFP-importin-beta, homogeneous | cell-free CFP-Ran/YFP-importin-beta FRET ratio | inhibition, % (no concentration beside the values) | 300,000 tested, 1.1% active | AID 2216;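 active = most replicates above 15%; inconclusive = exactly half above 15%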;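 also: 0% = DMSO wells and 100% = Ran loaded with GDP instead of GTP; wells of about 40 µL received 100 nL stock; the first replicate is given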
# HNF4A DNA FP: change in binding of human HNF4 alpha to DNA. P41235. 360,000 tested, 0.3% active. activity change, % at 10 µM. HNF4a-FITC DNA binding, fluorescence polarization, 1 h; in the data active = activity change above about 30%, passing the limit was not always enough;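 also: controls were the assay level and a saturating level of protein; the project sought stronger binding though the title names inhibitors; some compounds called inactive have numbers as strong as hits; positive values seem to mean higher polarization but the record does not say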
# Target sequence (P41235 whole entry, looked up): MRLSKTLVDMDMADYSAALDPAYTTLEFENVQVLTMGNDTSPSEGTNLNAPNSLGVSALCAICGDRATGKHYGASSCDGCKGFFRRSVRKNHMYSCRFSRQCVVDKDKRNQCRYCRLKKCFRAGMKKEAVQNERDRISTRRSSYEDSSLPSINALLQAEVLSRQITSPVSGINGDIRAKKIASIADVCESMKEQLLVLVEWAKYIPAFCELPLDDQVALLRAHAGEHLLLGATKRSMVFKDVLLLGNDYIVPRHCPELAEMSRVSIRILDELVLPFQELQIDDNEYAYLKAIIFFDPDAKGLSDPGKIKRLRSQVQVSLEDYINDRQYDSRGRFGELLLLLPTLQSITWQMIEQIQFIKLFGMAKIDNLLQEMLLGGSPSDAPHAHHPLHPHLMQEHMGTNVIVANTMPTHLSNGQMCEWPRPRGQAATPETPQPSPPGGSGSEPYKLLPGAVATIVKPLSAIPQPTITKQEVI
# Calb FLC: affects C. albicans growth with fluconazole | C. albicans CaCi-2 (fluconazole-resistant clinical isolate) + fluconazole, Alamar Blue growth, 48 h | growth inhibition, % (concentration not given with the values) | 300,000 tested, 0.57% active | AID 1979;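 active = most replicates above 75%; inconclusive = exactly half above 75%; inactive = most below 75%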;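 also: all wells also contain fluconazole at 8 µg/ml as a sub-toxic cotreatment; 0% = median of DMSO wells and 100% = median of geldanamycin control wells; wells of about 8 µL received 7.5 nL stock; the first replicate is given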
# LANA-H2A inh: blocks KSHV LANA binding to histone H2A/H2B. Q9QR71. cell-free LANA-H2A/H2B peptide, fluorescence polarization. inhibition, % (concentration not given with the values). 320,000 tested, 0.6% active. AID 2629; in the data active = inhibition mostly above about 10%, no sharp cut-off; inactive = mostly below about 6.7%;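 also: stock transfer was 7.5 nL into about 10 µL; 0% = median of vehicle wells and 100% = median of positive control wells; one replicate is shown; the record names a cut of 25% in any replicate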
# An asterisk follows results filed as active; ? = inconclusive; · = no result given; & = joins results of further samples.
SMILES,Beta2AR agonist,ALR inh,Vif TR-FRET,RanGTP-Imp inh,HNF4A DNA FP,Calb FLC,LANA-H2A inh
O=C(O)COc1ccccc1/C=N/NC(=O)CSc1nc2ccccc2s1,0,17,25%,1.1,2.5,-3,-3.4
CCOc1ccc2oc(C(=O)OCC(=O)NCc3ccc(OC)cc3)c(C)c2c1,-2,-3,23%,·,2.9,·,-0.5
Nc1c(C(=O)NCC2CCCO2)c2nc3ccccc3nc2n1-c1ccccc1 (configuration not stated),6,27,-6%&27%,78*,-1.0,4,-1.8
O=C(NCCCN1CCCC1=O)c1ccccc1NS(=O)(=O)c1ccc(Br)cc1,2,-3,8%,1.0,-1.1,23,0.5
O=C(COc1ccccc1)N1CCN(c2ccccc2)CC1,-13,54,10%,0.6,-1.9,-7,-0.5
CN1/C(=C\P(=O)(N(C)C)N(C)C)C(C)(C)c2ccccc21,-38,30,3%,2.7,39*,32,-14
O=C(NCC1COc2ccccc2O1)c1cc(S(=O)(=O)N2CCOCC2)ccc1F (configuration not stated),2,·,-4%,·,2.6,·,·
S=C1NC2(CCCCC2)Nc2ccccc21,-5,·,-17%,2.6,0.8,-7,1.2
CC1CCCCC1NC(=O)CCCn1c(=S)[nH]c2ccccc2c1=O (configuration not stated),7,-11,-2%,3.1,0.1,2,1.1
COC(=O)/C(=C\Nc1cccc(Cl)c1C)c1ncc(C(F)(F)F)cc1Cl,-7,·,3%,-0.7,-1.3,3,4.2
CCOC(=O)c1sc(=NC(=O)c2ccco2)n(C)c1C,-14,0,5%,·,-2.5,106*,1.1
COC(=O)c1cccc(NC(=O)CN2CCc3ccccc3C2)c1,-1,2,·,0.4,-0.9,-1,5.0
Cc1cccc(C(=O)Nc2scc(CC(C)C)c2C(=O)O)c1,2,96*,4%,-3.6,-3.1,-7,3.2
CC(=O)c1ccc(S(=O)(=O)N2CCN(c3nc4c(C)c(C)ccc4cc3C#N)CC2)cc1,0,-4,-291%,6.4,4.0,6,0.4
CC(C)C[C@@H](CN)NC(=O)c1nc[nH]c1C(=O)N[C@@H](Cc1c[nH]c2ccccc12)C(=O)CNC[C@H](C)NC(=O)c1nc[nH]c1C(=O)N[C@@H](C)C(=O)O,-8,·,-3%,·,2.6,·,·
O=c1c(-c2ccccc2)n[nH]c2ccccc12,2,·,-2%,-5.6,-0.6,-13,1.0
Cc1ccc(S(=O)(=O)n2ccc3c(OCCOCCSCC(NC(=O)OC(C)(C)C)C(=O)O)cccc32)cc1 (configuration not stated),-2,7,-2%,8.8,0.5,39,-0.6
COc1ccc(CCNC(=O)c2sc(=S)n(C)c2N)cc1,-11,4,-10%,5.1,-0.5,2,-0.9
CC(=O)Nc1cc(C(=O)N(C)Cc2ccco2)ccc1Sc1ccc(Cl)cc1,-2,-1,0%,18*,-1.6,-4,1.2
CC(Nc1ccc(F)cc1F)C(=O)NC(=O)NC1CCCCC1 (configuration not stated),0,-14,-1%,2.2,144*,-25,7.3
Cc1nnsc1C(=O)Nc1cccc(Cl)c1,-6,-3,4%,6.3,3.8,?,25*
CCN(CC)S(=O)(=O)c1ccc2c(c1)c(=O)c(C(=O)NCCc1ccc(OC)c(OC)c1)cn2C,24,·,-3%,-0.7,2.1,14,·
CCOC(=O)N/N=C/c1cccc(Cl)c1Cl,-3,-13,-16%,?,-0.6,9,-2.8
COc1ccc(OCCOC(=O)CCS(=O)(=O)c2ccc(C)cc2)cc1,-1,-4,-3%,·,0.7,-7,4.8
COc1ccccc1C(c1nnnn1CCc1ccccc1)N1CCCCCC1 (configuration not stated),-2,-8,-1%,5.4,2.3,-5,0.6
Brc1ccc(-c2nnc(-c3ccccc3)o2)o1,-14,-9,-4%,-3.2,-3.2,-18,0.7
Cc1c(C(=O)N2CCCCC2)c(S(=O)(=O)NCc2ccccc2Cl)c(C)n1C,6,0,·,1.8,2.8,-1,1.7
CCOc1ccc(NC(=O)CCC(=O)N/N=C/c2ccc([N+](=O)[O-])s2)cc1,13,-19,?,-1.8,2.3,21,1.5
Cc1ccc(O)c(N=Cc2sc3ccccc3c2Cl)c1,1,-9,?,4.3,5.2,2,-3.2
CCCCN(C(=O)c1ccc2c(c1)OCO2)C1CCS(=O)(=O)C1 (configuration not stated),-11,4,-3%,3.1,0.1,-1,2.7
COc1ccc(C(=O)N/N=C/c2cccnc2)cc1,3,6,78%,-0.8,-2.2,-14,2.5
O=C(CN1CCc2ccccc2C1)Nc1ccc(Br)cc1,-15,·,19%,0.8,-0.9,11,-4.9
CN(C(=O)COC(=O)/C=C/c1ccc(Cl)c(Cl)c1)c1c(N)n(Cc2ccccc2)c(=O)[nH]c1=O,-7,·,1%,6.9,3.1,4,-1.5
CC(C)SC1=NC(C)(C)C=C(/C=C/c2ccc(Cl)cc2Cl)N1,-2,32,1%,-1.7,-0.1,-1,1.3
COCCCn1c(SCC(N)=O)nnc1-c1ccccc1,6,1,3%,-1.4,-0.8,30,3.6
O=C(NCCSc1ccccn1)c1ccc(Cl)cc1,-11,-18,18%,0.8,-4.8,5,1.9
N#Cc1ccc(C23CC4(C2)[C@H](CN(Cc2ccc(-c5ccccc5)cc2)[C@@H]4c2ccccc2)C3c2ccccc2)cc1 (some centres not stated),-26,-7,·,7.0,5.2,-1,-0.1
Cc1ccc(C)c(OCCCCN2CCCCC2)c1,11,-3,·,-0.6,0.4,-3,-14
O=C(NCc1cccnc1)c1c(F)c(F)c(F)c(F)c1F,-3,-5,-4%,2.5,0.6,-1,0.1
CCc1ccc(N(CC(=O)Nc2nc3ccc(C)cc3s2)S(=O)(=O)c2c(C)noc2C)cc1,7,-1,0%,-0.4,-0.6,4,-3.0
O=C(NC(=O)N1CCCc2ccccc21)c1ccccc1,-7,-22,6%,4.4,-1.6,9,-1.1
Cc1cc(C)nc(NC(=NCCc2c[nH]c3ccccc23)NC(=O)Nc2ccc(Cl)cc2)n1,1,1,·,5.1,1.1,3,-0.8
CCN1C(=O)[C@@H]2[C@@H](c3ccc(-c4ccc5c(c4)OCO5)c(OC)c3)N3CCCC[C@@]3(C(=O)OC)[C@@H]2C1=O,-2,6,·,-0.8,-0.5,-7,-3.2
COc1ccccc1NS(=O)(=O)c1cccc(C(=O)N/N=C/c2cn(-c3ccccc3)nc2-c2ccccc2)c1,-14,·,14%,-1.4,1.1,56,·
CC(=O)c1ccc(NC(=O)CN2CCC(C(=O)c3ccc4c(c3)OCCO4)CC2)cc1,-3,1,·,-1.3,3.1,-12,-0.1
C/C(=N\NC(=S)NCCc1ccccc1)c1cccc(Br)c1,12,-1,-2%,0.2,2.7,-41,0.2
Cc1cc(C)n2nc(C(=O)OCC(=O)Nc3ccc(C)c(S(=O)(=O)N(C)C)c3)nc2n1,-1,-1,4%,·,0.9,·,7.2
O=C(CN1CCN(c2cccc(Cl)n2)CC1)N1CC(O)CO1 (configuration not stated),2,-13,2%,0.8,1.1,-2,-3.5
O=C(CSc1nccc(=O)[nH]1)NC1CCCCCC1,-3,-2,-8%,·,3.4,·,-5.2
Cc1c(C(=O)Nc2ccc3c(c2)CCC3)cccc1[N+](=O)[O-],-4,11,·,?,7.2,-7,1.7
Oc1ccc(/C=N/Nc2nc(-c3ccccc3F)nc3ccccc23)c(O)c1,20,6,-4%,5.3,17,10,-4.9
CCN(CC)CCNC(=O)c1ccc(NS(=O)(=O)c2ccc3c(c2)OCCO3)cc1,-4,0,-1%,-4.3,2.6,-3,-3.4
O=C(/C=C/c1ccc2c(c1)OCO2)c1ccc(O)cc1O,19,·,8%,·,4.8,·,·
Clc1ccc(-c2nc3nc4ccccc4nc3n2Cc2ccco2)cc1,7,11,?,·,-1.2,·,-1.7
O=C(CCNC(=O)c1ccc(Br)cc1)Nc1nc2ccccc2[nH]1,-6,·,-3%,·,0.4,·,·
O=[N+]([O-])c1cccc(N/N=C/c2cccc3ccccc23)c1,4,·,·,?,-0.7,-32,-6.1
Cc1ccccc1CN1CCNC1=O,3,-13,2%,0.2,1.5,-12,-5.5
CC12CCC(=O)N1C(C(=O)Nc1nnc(SCc3ccccc3F)s1)CS2 (configuration not stated),1,-3,·,-4.4,0.7,-5,0.0
COc1ccc(CCNC(=O)Nc2cccc([N+](=O)[O-])c2)cc1OC,9,-2,-10%,-1.1,2.6,1,-6.3
CNC(=S)NNC(=O)c1c(C)nc2cc(C)ccn12,-6,27,-3%,-2.5,2.3,-2,2.2
# (listing goes on)
SMILES,Beta2AR agonist,ALR inh,Vif TR-FRET,RanGTP-Imp inh,HNF4A DNA FP,Calb FLC,LANA-H2A inh
CCCS(=O)(=O)N1CCCC(C(=O)Oc2ccccc2Cl)C1 (configuration not stated),-5,-24,·,-0.7,0.7,-4,5.8
OCCN1CCN(c2nc(-c3ccccc3)nc3c2oc2ccccc23)CC1,19,-5,-7%,3.0,-1.3,4,-1.7
N#Cc1c(NC(=O)c2ccccc2Cl)n(Cc2ccccc2)c2nc3ccccc3nc12,-5,9,25%,·,73*,·,-401
Cc1csc(NC(C)c2nc3cc(Cl)c(Cl)cc3n2CCCO)n1 (configuration not stated),-3,45,·,4.2,3.3,10,-0.6
Cc1cccc(NC(=O)NC2CC(=O)N(c3ccc4c(c3)OCCO4)C2)n1 (configuration not stated),-9,·,1%,0.6,1.2,4,-2.6
CC(C)Oc1ccc(CC(=O)NNC(=S)Nc2ccccc2)cc1,-3,·,7%,4.3,0.5,0,6.3
O=C(Cn1ncc2c3ccccc3n(Cc3ccccc3)c2c1=O)NCCN1CCOCC1,-9,0,-2%,4.3,-1.9,-9,3.8
O=C(Cn1cnc2c(nnn2Cc2ccc(F)cc2)c1=O)NC1CCCC1,0,0,-6%,·,3.8,100*,6.4
CCCCSc1nc2c(c(=O)[nH]1)CCC2,0,4,20%,-0.3,-2.3,-2,4.2
O=C(Nc1cccc2c1C(=O)NC2=O)c1ccc(N2C(=O)CCC2=O)cc1,0,-2,-3%,-0.2,-2.6,-5,0.3
COc1cccc(NC(=O)CN2C(=O)NC3(CCCCCC3)C2=O)c1,4,-4,10%,·,-0.7,·,5.2
CCCc1cc(Nc2cccc(OC)c2)n2ncnc2n1,3,-14,-4%,0.5,-3.6,-3,-1.1
O=C(NCc1ccccc1)C(c1ccncc1)N(C(=O)c1csnn1)c1ccccc1F (configuration not stated),-13,-11,2%,2.5,3.4,13,-2.5
Cc1cccc(OCCCn2c(CO)nc3ccccc32)c1,-4,·,2%,-1.7,5.5,-3,-0.3
CCOC(=O)C1CCN(S(=O)(=O)CCNC(=O)c2ccccc2)CC1,3,1,-3%,2.6,0.9,-1,0.2
Cc1ccc(-n2c(SCC(=O)c3c(N)n(C)c(=O)n(C)c3=O)nc3sc4c(c3c2=O)CCCC4)c(C)c1,-17,-13,-1%,2.8,-2.5,-10,-3.1
COCCn1c(Sc2ccccc2)nc2c1c(=O)[nH]c(=O)n2C,-4,·,-8%,-0.2,1.0,-5,2.0
Cc1nn(CC(=O)Nc2cccc(Cl)c2)c(=O)c2cc(-c3ccccc3)nn12,-5,-14,·,-1.6,-0.4,9,0.4
O=C(N/N=C/c1ccc(OCC(=O)N2CCCC2)cc1)C(=O)NC1CC1,-2,19,·,2.3,0.3,-5,26*
O=C(CN1C(=O)S/C(=C\c2ccccc2)C1=O)Nc1cc([N+](=O)[O-])ccc1O,6,49,·,-1.4,-2.6,?,4.3
CC(=O)C[C@H](O)CC(=O)[C@H]1OC(=O)CCCCCCCc2ccccc21,6,-3,·,·,2.4,·,-1.2
O=C(CSc1nnc(NC(=O)c2ccccc2C(=O)O)s1)Nc1ccccc1Cl,4,-1,-6%,1.5,-0.7,9,2.7

# High-throughput results: PubChem, several laboratories
